# Screening results as filed in PubChem BioAssay.
# CBX7 AlphaScr – blocks human CBX7 binding to H3K27me3 peptide; normalised signal (fraction of DMSO) (no concentration beside the values); AlphaScreen His6-CBX7 / biotin-H3K27me3 peptide binding; hits give low values; O95931; 1.1% of 66,000 active; in the data active = normalised signal below about 0.5;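 note: 100 nL library stock added to about 20 µL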
# Target sequence (O95931 whole entry, looked up): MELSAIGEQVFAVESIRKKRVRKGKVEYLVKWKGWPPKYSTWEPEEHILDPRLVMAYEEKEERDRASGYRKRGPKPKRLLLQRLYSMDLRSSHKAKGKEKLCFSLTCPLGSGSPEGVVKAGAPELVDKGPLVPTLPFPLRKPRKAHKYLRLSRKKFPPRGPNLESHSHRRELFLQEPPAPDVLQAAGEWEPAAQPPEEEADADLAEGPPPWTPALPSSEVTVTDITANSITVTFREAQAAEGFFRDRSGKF
# CBX7 AlphaScr z-score – recorded beside CBX7 AlphaScr, whose call it bears; z-score; measured here: z-score of CBX7 signal; some inactives read as strong as hits; reference of the scale not given here;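 same signal on another scale; lower means less binding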
# The depositor's hits bear a star. Some of the compounds tested, so the mix of outcomes need not match the whole.
SMILES,CBX7 AlphaScr,CBX7 AlphaScr z-score
COc1ccc(CCCc2nnc(SCC(=O)Nc3cc(F)ccc3C)o2)cc1C,0.98,-0.2
Cc1cc(C)c2nc(SCCc3ccccc3)nc(C)c2c1,1.3,8.6
Cc1ccc(N2C(=O)CC(N3CCN(c4ccccc4)CC3)C2=O)c(C)c1 (stereo not given),1,0.098
COc1ccc(-c2noc(N(C)CC(=O)Nc3cc(Cl)c(OC)cc3OC)n2)cc1,1.1,2
O=C(c1cc2c(s1)-c1ccccc1OC2)N1CCCC1,1.1,2.7
Cc1cc(N2CCN(c3ccccc3F)CC2)n2ncnc2n1,1.1,0.95
COc1ccccc1NC(=O)Cn1cc(S(=O)(=O)c2ccc(C)cc2)c(=O)c2cc(C)ccc21,0.92,-1.1
COc1ccc(Cl)cc1-c1nc(-c2ccc(NC(=O)c3ccncc3)cc2)no1,1,-0.031
CCc1nc(-c2ccc(OC)cc2)cc2cc(OC)c(OC)cc12,1.1,3.8
O=c1cc(-c2ccccc2)n2nc(-c3ccccc3)cc2[nH]1,1.1,1.4
Cc1ccc(S(=O)(=O)Nc2ccc(-c3cn4cccc(C)c4n3)cc2)c(C)c1,0.95,-0.75
COc1ccc(Cn2c(=O)[nH]c3cc(C(=O)NCc4ccccc4Cl)ccc3c2=O)cc1,1,0.85
C=CCN1C(=O)N(c2cccc(OC)c2)C(=O)C1CC(=O)Nc1ccc(OC)cc1 (stereo not given),1.1,1.9
COc1cccc(NC(=O)c2oc3ccc(S(=O)(=O)N(C)C4CCCCC4)cc3c2C)c1,1,-0.1
CCCc1ccc(Oc2c(-c3ccc(OC)cc3O)n[nH]c2C)cc1,0.71,-4.5
COc1cc2c(cc1OC)C1C(C(=O)NCc3ccc4c(c3)OCO4)c3ccccc3C(=O)N1CC2 (stereo not given),0.99,-0.24
CC1=C(C(=O)Nc2cc(C)ccn2)C(c2ccc3c(c2)OCO3)C2=C(CCCC2=O)N1 (stereo not given),0.97,-0.3
Cc1cc(N2CCC(C(=O)Nc3ccc(F)cc3F)CC2)n2nc(C)c(-c3ccc(Cl)cc3)c2n1,1,0.12
COc1ccc(-c2cc(C(F)(F)F)nc(N3CCOCC3)n2)cc1,1.4,3.2
CC(NC(=O)CNc1ccccc1-c1nc2ccccc2[nH]c1=O)c1ccccc1 (stereo not given),1.1,2.6
Cc1ccccc1NC1c2ccccc2C(=O)N1Cc1ccccc1Cl (stereo not given),0.96,-0.35
Cc1ccc(-c2nnc(Nc3cccc(O)c3)c3ccccc23)cc1S(=O)(=O)N1CCOCC1,0.96,-0.42
CCOc1ccccc1NC(=O)CSc1nccn1-c1cccc(OC)c1,0.48*,-0.69*
Cc1nc2c(-c3ccccc3)c(C)nn2c(C)c1CCC(=O)Nc1ccccc1,1.1,2.1
COc1ccc(-c2cn(-c3ccc(C)cc3)c(S(=O)(=O)CC(=O)Nc3cccc(C)c3)n2)cc1,0.69,-3.2
SMILES,CBX7 AlphaScr,CBX7 AlphaScr z-score
COc1ccc(OC)c(NC(=O)c2c(NCc3cccnc3)sc3c2CCCC3)c1,0.6,-21
COc1ccc(NC(=O)c2cnc3ccccc3n2)c(OC)c1,0.95,-0.88
COCCN1Cc2cccc(C(=O)Nc3c(C)cc(C)cc3C)c2C1=O,1.2,1.8
CCn1c(SCC(=O)Nc2cccc(F)c2)nnc1-c1c[nH]c2ccccc12,1.1,0.73
Cc1c(C(=O)NCCN2CCCC2)sc2ncn(CC(=O)N3CCCCC3C)c(=O)c12 (stereo not given),1,0.54
COc1ccc(-c2nnc(Sc3nc4ccccc4o3)c3ccccc23)cc1,0.95,-0.2
O=C1CCc2cc(S(=O)(=O)Nc3ccc(OC(F)(F)F)cc3)ccc2N1,0.97,-0.6
Cc1noc(C)c1S(=O)(=O)N1CCCC(C(=O)NCCC2=CCCCC2)C1 (stereo not given),1,0.26
CCOc1ccc(Nc2nc(-c3ccccc3Cl)nc3ccccc23)cc1,1.1,1.5
O=S(=O)(Nc1nc2ccccc2nc1Nc1ccc(N2CCCC2)cc1)c1ccc(Cl)cc1,0.82,-3.3
CCCOc1nnc(-c2ccc(C)cc2)c2ccccc12,0.95,-0.19
Cc1ccc(-c2n[nH]c(=O)c3ccccc23)cc1S(=O)(=O)N(C)CCO,0.98,-0.56
C=CCNC(=O)C1CC(c2cccc(OC)c2)=NO1 (stereo not given),0.97,-0.39
CCN(CC)S(=O)(=O)c1ccc(C(=O)Nc2nnc(-c3ccc(Cl)cc3Cl)s2)cc1,1,0.35
COc1ccc(N2CCN(C(=O)CCCN3C(=O)CSc4ncccc43)CC2)cc1,1.1,0.15
CCOCCCNC(=O)Cn1nc(-c2ccccc2)c2cc(Cl)ccc21,1,0.46
CCN1CCN(c2nnc(-c3ccc(C)cc3)c3ccccc23)CC1,1.1,2.6
CCOc1ccc(C(=O)c2cn(Cc3ccc(Cl)cc3)c3cc(OC)c(OC)cc3c2=O)cc1,0.85,-0.52
CCOc1ccc(-c2nc3cc(NC(=O)c4cccc(C)c4)ccc3o2)cc1,1,0.27
CCOc1cc2c(cc1OCC)C(c1cccc(F)c1)NCC2 (stereo not given),1.1,1.1
Fc1ccc(N2CCN(c3nc(-c4cccs4)cc(C(F)(F)F)n3)CC2)cc1,1.2,1.7
CCCSCCCNC(=O)CC1Oc2ccc(C)cc2NC1=O (stereo not given),1,0.63
COc1ccccc1CNC(=O)C(=O)NC(C)C(c1cccs1)N1CCN(C)CC1 (stereo not given),1,0.38
CCOc1ccc(Nc2cc(C(=O)NCc3ccccn3)c3ccccc3n2)cc1,0.92,-1.3
Cc1cc(C)c2nc(NC(=O)c3ccc(S(=O)(=O)N(C)c4ccccc4)cc3)sc2c1,1.1,1.1

# One compound at a time (already shown). Order of screens: CBX7 AlphaScr | CBX7 AlphaScr z-score
# `COc1ccc(-c2cc(C(F)(F)F)nc(N3CCOCC3)n2)cc1` is entered as 1.4 | 3.2
# `COc1cccc(NC(=O)c2oc3ccc(S(=O)(=O)N(C)C4CCCCC4)cc3c2C)c1` is entered as 1 | -0.1
# `Cc1ccc(-c2n[nH]c(=O)c3ccccc23)cc1S(=O)(=O)N(C)CCO` is entered as 0.98 | -0.56
# `COc1ccc(Cn2c(=O)[nH]c3cc(C(=O)NCc4ccccc4Cl)ccc3c2=O)cc1` is entered as 1 | 0.85

# Pulled by compound from the entries so far:
SMILES,CBX7 AlphaScr,CBX7 AlphaScr z-score
COc1ccc(NC(=O)c2cnc3ccccc3n2)c(OC)c1,0.95,-0.88
Cc1cc(C)c2nc(NC(=O)c3ccc(S(=O)(=O)N(C)c4ccccc4)cc3)sc2c1,1.1,1.1
Cc1c(C(=O)NCCN2CCCC2)sc2ncn(CC(=O)N3CCCCC3C)c(=O)c12 (stereo not given),1,0.54
O=S(=O)(Nc1nc2ccccc2nc1Nc1ccc(N2CCCC2)cc1)c1ccc(Cl)cc1,0.82,-3.3

# Further entries follow.
SMILES,CBX7 AlphaScr,CBX7 AlphaScr z-score
CCCS(=O)(=O)NCCc1cc2ccc(C)c(C)c2[nH]c1=O,1.1,1.1
OC1CCCc2c1[nH]c1ccc(OCc3ccccc3)cc21 (stereo not given),0.43*,-1.6*
Cc1ccc(NC(=O)c2oc3ccc(S(=O)(=O)N4CCCCCC4)cc3c2C)c(C)c1,0.99,-0.32
COc1ccccc1CN1CC(C(=O)NCC2CCCO2)CC1=O (stereo not given),1,-0.13
O=c1c2ccccc2nc(/C=C/c2ccc(OCc3ccc(Cl)c(Cl)c3)cc2)n1-c1ccc(F)cc1,1.1,6.4
Cc1nc2c(C(=O)NCCN3CCOCC3)c[nH]n2c(=O)c1Cc1ccc(F)cc1,1.1,1.2
Cc1cc(NC(=O)c2cc(-c3ccc(Cl)cc3)on2)no1,1,1.9
Cc1sc2ncnc(N3CCOCC3)c2c1C,0.99,-0.16
CC1CCN(S(=O)(=O)c2ccc3c(c2)N(CC(=O)NCc2cccnc2)C(=O)CO3)CC1,0.87,-2
COCCn1c(SCC(=O)Nc2cccc(Cl)c2)nnc1-c1c[nH]c2ccccc12,1,0.25
CC(C)Sc1oc(-c2ccc(F)cc2)nc1S(=O)(=O)c1ccc(F)cc1,0.98,-0.19
CCN1CCN(C(c2cccs2)C(C)NC(=O)C(=O)NCCN2CCOCC2)CC1 (stereo not given),1.1,1.5
C=CCNc1nc(-c2ccc(O)c(C(N)=O)c2)cs1,0.88,-4.4
CCOc1ccc(C(=O)Nc2cccc(-c3nc4ncccc4o3)c2C)cc1Br,1,0.3
Cc1ccccc1NC(=O)Cn1cc(S(=O)(=O)c2ccccc2)c(=O)c2cc(Cl)ccc21,0.88,-2
CCOc1ccc(CCNC(=O)CC2Oc3ccc(C)cc3NC2=O)cc1OCC (stereo not given),0.99,-0.16
O=C(Nc1cccc(-c2nc3ccccc3[nH]2)c1)c1cc2ccccc2o1,0.86,-1.7
O=C(CN1CCN(Cc2ccc(F)cc2Cl)C1=O)NCc1cccs1,1,0.51
Cc1ccc(Cn2cc(CCC(=O)NC(C)c3ccccc3)c3ccccc32)cc1 (stereo not given),1.2,1.5
O=C(NCc1ccccc1)c1ccc2c(c1)N(Cc1ccccc1F)C(=O)c1ccccc1S2=O (stereo not given),0.93,-1.7
CC(=O)Nc1nonc1-c1nc2ccccc2n1Cc1ccc(Cl)c(Cl)c1,1.1,1.5
Cc1nc2c(C(=O)NCc3ccccc3Cl)cnn2c(C)c1Cc1ccccc1F,0.98,-0.21
Cc1ccc2c(c1)-c1c(cnn1CC(=O)N1CCCc3ccccc31)CO2,0.98,-0.54
Cc1onc(-c2ccccc2Cl)c1C(=O)Nc1cccc2cccnc12,0.8,-1.9
O=c1c(S(=O)(=O)c2ccc(Cl)cc2)c[nH]c2ccc(F)cc12,1.1,2.8
SMILES,CBX7 AlphaScr,CBX7 AlphaScr z-score
Cc1ccc(N2CCN(C(=O)Cn3nc(Cc4cccnc4)c4ccccc4c3=O)CC2C)cc1 (stereo not given),1,0.027
CC(C)NC(=O)c1ccc2c(c1)N(Cc1ccccc1Cl)C(=O)CS2,1,0.3
O=C(c1ccccc1Oc1nnnn1-c1ccccc1)N1CCOCC1,1.1,1.4
Cc1cc(NC(=O)Cn2nc(Cc3cccnc3)c3ccccc3c2=O)no1,1.1,0.92
CN(C)CCCNc1ncnc2c1c(-c1ccccc1)cn2-c1ccc(Br)cc1,0.91,-2.5
COc1ccc(-c2nc(CN3CCC(C(=O)NCc4ccccc4)CC3)c(C)o2)cc1OC,1.1,0.91
COc1ccc(-c2nc3ncccn3c2Nc2ccc3c(c2)OCCO3)cc1,0.81,-0.19
Cc1cccc(CC2CC(=O)N(c3ccc(C)c(Br)c3)C2=O)c1 (stereo not given),1.2,1.7
COc1ccc(-c2cc(C(=O)Nc3ccccc3Cl)c3ccccc3n2)cc1OC,1,0.19
CCn1c2ccccc2n2cc(C34CC5CC(CC(C5)C3)C4)nc12,1,1.2
CC(C)C(=O)Nc1ccc2oc(-c3ccccc3F)nc2c1,1.4,1.3
Cc1ccc(NC(=O)Cn2cnc3c2c(=O)n(C)c(=O)n3C)cc1Cl,1,-0.073
CCOC(=O)C1CCN(C(=O)c2cnc(Nc3ccccc3OC)c3ccccc23)CC1,1.2,7.3
O=C(NC1CCCC1)c1nnc(Cc2ccc(Cl)cc2)o1,1,1.3
C=CCc1ccc(Oc2nc(C)nc3sc4c(c23)CCC4)c(OC)c1,0.88,-1.7
CCCCCn1c(CCNC(=O)Cc2ccccc2)nc2ccccc21,1,0.46
O=C(NCCCN1CCCCCC1)c1cc(=O)[nH]c2ccc(S(=O)(=O)N3CCOCC3)cc12,1,1.3
CCc1ccc(-c2nc(C(=O)NCCCOC(C)C)c(C)o2)cc1,0.97,-0.17
Cc1ccc(NC(=O)c2sc3ncn(CC(=O)Nc4ccc(C)c(Cl)c4)c(=O)c3c2C)cc1F,1.2,2.3
CC(C)c1ccc(Nc2c(-c3ccccc3)nc3cnccn23)cc1,1.1,0.65
COc1ccc(-c2csc(NC(=O)c3ccc(S(=O)(=O)N4CCCC4)cc3)n2)cc1,0.96,-0.71
Cc1cccc(NC(=O)C2CCN(S(=O)(=O)c3c(C)noc3/C=C/c3cccs3)CC2)n1,1,0.045
CCCCNC(=O)c1ccc2c(c1)N(Cc1cc(C)ccc1C)C(=O)c1ccccc1S2=O (stereo not given),0.97,-0.24
O=C(Nc1ccc2oc(-c3ccccc3Cl)nc2c1)c1ncn[nH]1,0.043*,-27*
Cn1c(=O)c(=O)n(C)c2cc(S(=O)(=O)N(CC(=O)O)c3ccc4c(c3)OCO4)ccc21,1.1,0.98

# Some of these compounds in order of number of heavy atoms, rising:
SMILES,CBX7 AlphaScr,CBX7 AlphaScr z-score
CC(C)C(=O)Nc1ccc2oc(-c3ccccc3F)nc2c1,1.4,1.3
CC(C)NC(=O)c1ccc2c(c1)N(Cc1ccccc1Cl)C(=O)CS2,1,0.3
CN(C)CCCNc1ncnc2c1c(-c1ccccc1)cn2-c1ccc(Br)cc1,0.91,-2.5
COc1ccc(-c2csc(NC(=O)c3ccc(S(=O)(=O)N4CCCC4)cc3)n2)cc1,0.96,-0.71
Cc1cccc(NC(=O)C2CCN(S(=O)(=O)c3c(C)noc3/C=C/c3cccs3)CC2)n1,1,0.045
Cc1ccc(NC(=O)c2sc3ncn(CC(=O)Nc4ccc(C)c(Cl)c4)c(=O)c3c2C)cc1F,1.2,2.3
Cc1ccc(N2CCN(C(=O)Cn3nc(Cc4cccnc4)c4ccccc4c3=O)CC2C)cc1 (stereo not given),1,0.027

# The listing continues:
SMILES,CBX7 AlphaScr,CBX7 AlphaScr z-score
CCOC(=O)N1CCN(C(=O)Cn2cc3c(n2)CCCC3)CC1,1,0.3
CC(C)c1ccc(NC(=O)C2CCN(S(=O)(=O)c3cccc4cccnc34)CC2)cc1,0.92,-1.1
CC(=O)N1CCc2cc(S(=O)(=O)NC(C(=O)Nc3ccc4c(c3)OCCO4)C(C)C)ccc21 (stereo not given),1,1.7
Cc1ccc(Nc2cc(C(=O)N3CCOCC3)c3ccccc3n2)cc1C,1.1,2.3
C=CCN(C(=O)Cn1c(SCc2cc(C)ccc2C)nc2ccncc21)c1ccccc1,1,0.74
CC(C)CCNC(=O)c1ccc2c(c1)N(Cc1ccc(Cl)cc1)C(=O)CS2,1.1,1.1
O=C(Cn1ccc2ccccc2c1=O)NCCC(=O)Nc1cnc2ccccc2c1,1.1,2
Cc1ccccc1CN1C(=O)c2ccccc2S(=O)c2ccc(C(=O)NC3CCC(C)CC3)cc21 (stereo not given),0.99,-0.065
